Screening data from PubChem BioAssay.
MgrA DNA FP: S. aureus MgrA activity modulators, primary screen, biochemical, S. aureus Newman, fluorescence polarization | hit rate 0.13% among 84,000 | inhibition, %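 (about 10 µg/mL by stock and volumes)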 | MgrA-DNA binding;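 active means above 50% in either of two replicates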;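 further: 0% = protein plus DNA without compound and 100% = DNA alone without protein; higher means less MgrA bound to DNA so lower polarization; one replicate is shown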
Sa helicase inh: inhibitors of S. aureus replicative helicase, primary screen, biochemical, fluorescence unwinding readout. replicative DNA helicase (DnaC/DnaB), Staphylococcus aureus. purified S. aureus helicase, fluorescence unwinding assay; about half of the hits fall short of the stated cut. inhibition, %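 (tested at about 80 µM)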. hit rate 0.05% among 120,000. AID 485395, 2010;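 active means both duplicates at 50% or more, or one of them with a favoured structure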;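 further: 0% = mean of negative control wells and 100% = mean of positive control wells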
* hit, by the source's call; nt = no result given; & = joins results of further samples. This is a subset. The share of hits here may be higher or lower than overall.

SMILES	MgrA DNA FP	Sa helicase inh
C=CCNC(=S)/N=c1\sccn1C	-0.2	12.0
CN1CCCCC1CCN1c2ccccc2Sc2ccc(S(C)=O)cc21 (stereo not drawn)	-1.8	nt
CC(Sc1nc2ncccc2[nH]1)C(=O)Nc1ccc(F)cc1 (stereo not drawn)	nt	24.0
COc1cccc(C(=O)Nc2ccc(O)c(-c3nc4ccccc4s3)c2)c1	0.5	nt
NC(=O)CN1CCC(N2CCCCC2)CC1	16.9	-4.0
CC(C(=O)Nc1ccccc1)n1nc(-c2ccccc2)ccc1=O (stereo not drawn)	nt	23.0
CCCn1c(C)cc(C(=O)COC(=O)c2ccc(C#N)cc2)c1C	nt	-11.0
COC(=O)c1sc(OC)c(C(F)(F)F)c1O	-1.3	2.0
c1ccc2c(c1)CCCC2Nc1ncnc2c1nc1n2CCCCC1 (stereo not drawn)	nt	-30.0
Cc1cc2oc(=O)cc(C)c2c(=O)[nH]1	nt	21.0
N#CCS(=O)(=O)c1ccc(Cl)c(Cl)c1	2.1	nt
O=C(/C=C/c1ccco1)OCC(=O)c1cc2c3c(c1)CC(=O)N3CCC2	nt	-8.0
O=C(c1ccco1)N1CCN(c2c3c(nc4cc(-c5cccc(F)c5)nn24)CCCC3)CC1	-0.3	7.0
Cc1cc(=O)[nH]c2sc(C(=O)N3c4ccccc4CC3C)c(N)c12 (stereo not drawn)	-3.8	10.0
N#Cc1nc(-c2ccccc2F)oc1NC1CC1	5.0	6.0
COC(=O)C(Cc1c[nH]c2ccccc12)NC(=O)C(Cc1ccccc1)NS(=O)(=O)c1ccc(C)cc1 (stereo not drawn)	1.9	nt
CC1(C)C2CCC1(C(=O)O)C(=O)C2 (stereo not drawn)	nt	-13.0
NC(=O)c1ccsc1NC(=O)CSc1ncnc2sc3c(c12)CCCC3	nt	0.0
Cc1cc(C)cc(OCC(=O)N2CCCC2)c1	-3.8	5.0
O=c1[nH]c(=O)c2nc3cc(C(F)(F)F)ccc3nc2[nH]1	nt	-98.0
CCN(CC)S(=O)(=O)c1ccc(NCC(=O)Nc2ccc(S(=O)(=O)N(C)C)cc2)cc1	nt	11.0
O=C(Nc1ccc(Cl)cc1)Nc1ccc(N2CCN(c3ncccc3C(F)(F)F)CC2)nc1	-5.5	nt
COc1cc(C2C3=C(CC(C)(C)CC3=O)OC3=C2C(=O)CC(C)(C)C3)ccc1OC(=O)N(C)C	-2.9	nt
O=S(=O)(/C=C/c1ccccc1)NCc1ccco1	-0.9	-14.0
CC(C(=O)Nc1ccc(C#N)cc1)N1CCN(S(=O)(=O)/C=C/c2ccccc2)CC1 (stereo not drawn)	nt	2.0

(cont.)
SMILES	MgrA DNA FP	Sa helicase inh
C=CCn1c(=N)n(CC(=O)C(C)(C)C)c2ccccc21	nt	10.0
CN1C(=O)/C(=N\N=c2\sc3ccccc3n2C)c2ccccc21	nt	-58.0
CCCNC(=O)c1cc(Cl)c2c(c1)OCO2	nt	24.0
COc1ccc(CCC(=O)Nc2ccc3nc(N4CCN(c5ncccn5)CC4)cc(C)c3c2)cc1	nt	-20.0
NC(=S)Nc1cccc(C(F)(F)F)c1	nt	7.0
COc1ccc(CNC(=O)c2cnc(OC)cc2C(F)(F)F)cc1	-2.5	nt
Cc1ccc2c(ccn3cc4c(c(=O)n(C)c(=O)n4C)c23)c1	nt	28.0
O=C(O)CCSc1nnc(-c2ccncc2)n1-c1ccccc1	nt	13.0
CCOC(=O)Cn1c(=NC(=O)CN2C(=O)CCC2=O)sc2cc(S(N)(=O)=O)ccc21	nt	18.0
O=C(/C=C/c1nc2ccccc2o1)N1CCN(Cc2nc3ccccc3s2)CC1	nt	16.0
CN(C(=O)c1ccc(Br)cc1)C1CCCCC1	0.2	-2.0
CCCc1nc(SCC(=O)N(CC)CC)c2ccccc2n1	0.0	4.0
N#Cc1c(Cl)cccc1Oc1cccc(S(=O)(=O)NCc2ccc3c(c2)OCO3)c1	2.4	nt
CC(NC(=O)c1ccc(C(C)(C)C)cc1)c1ccccc1 (stereo not drawn)	-0.7	-16.0
Cc1ccc(C=N/C(=N\NC(=O)c2ccccc2)c2ccccc2)o1	1.8	-6.0
CCOc1ccc(NC(=S)NCCCO)cc1	nt	1.0
CSc1nc2[nH]c(=O)cc(O)c2s1	2.2	1.0
CCN1CCN(C(=O)c2cccc(OC(F)F)c2)CC1	nt	-14.0
C=CCn1c(NS(=O)(=O)c2ccccc2)c(C#N)c2nc3ccccc3nc21	nt	-13.0
CCC(CC)N=C1NS(=O)(=O)c2ccccc21	nt	17.0
Cc1cc(=O)n(-c2ccc([N+](=O)[O-])cc2)[nH]1	-0.2	nt
COc1cc(C(F)(F)F)nc2ccc(C)c(NC(=O)c3ccccc3)c12	0.0	nt
O=C(NCCCn1cccc1)c1c(F)cccc1F	-1.2	nt
CNc1ccccc1C(C)(C)c1[nH]ncc1-c1ccc(F)cc1	1.7	-22.0
CC(C)(C)c1nnc(N)s1	-0.1	12.0

Nothing new here: 16 of the compounds above.
SMILES	MgrA DNA FP	Sa helicase inh
C=CCNC(=S)/N=c1\sccn1C	-0.2	12.0
CN1CCCCC1CCN1c2ccccc2Sc2ccc(S(C)=O)cc21 (stereo not drawn)	-1.8	nt
CC(Sc1nc2ncccc2[nH]1)C(=O)Nc1ccc(F)cc1 (stereo not drawn)	nt	24.0
COc1cccc(C(=O)Nc2ccc(O)c(-c3nc4ccccc4s3)c2)c1	0.5	nt
NC(=O)CN1CCC(N2CCCCC2)CC1	16.9	-4.0
CC(C(=O)Nc1ccccc1)n1nc(-c2ccccc2)ccc1=O (stereo not drawn)	nt	23.0
CCCn1c(C)cc(C(=O)COC(=O)c2ccc(C#N)cc2)c1C	nt	-11.0
COC(=O)c1sc(OC)c(C(F)(F)F)c1O	-1.3	2.0
c1ccc2c(c1)CCCC2Nc1ncnc2c1nc1n2CCCCC1 (stereo not drawn)	nt	-30.0
Cc1cc2oc(=O)cc(C)c2c(=O)[nH]1	nt	21.0
N#CCS(=O)(=O)c1ccc(Cl)c(Cl)c1	2.1	nt
O=C(/C=C/c1ccco1)OCC(=O)c1cc2c3c(c1)CC(=O)N3CCC2	nt	-8.0
O=C(c1ccco1)N1CCN(c2c3c(nc4cc(-c5cccc(F)c5)nn24)CCCC3)CC1	-0.3	7.0
Cc1cc(=O)[nH]c2sc(C(=O)N3c4ccccc4CC3C)c(N)c12 (stereo not drawn)	-3.8	10.0
N#Cc1nc(-c2ccccc2F)oc1NC1CC1	5.0	6.0
COC(=O)C(Cc1c[nH]c2ccccc12)NC(=O)C(Cc1ccccc1)NS(=O)(=O)c1ccc(C)cc1 (stereo not drawn)	1.9	nt

Additional structures follow:
SMILES	MgrA DNA FP	Sa helicase inh
O=C(Cn1c(=O)oc2cc(S(=O)(=O)N3CCc4ccccc43)ccc21)NC1CCCCCC1	nt	9.0
O=C(Cn1ncc(Cl)c(Cl)c1=O)NCC1CCCO1 (stereo not drawn)	nt	14.0
c1ccc(CNc2ccc(N3CCCCC3)nn2)cc1	-2.4	11.0
CC(C)N(Cc1nnc(-c2ccccc2Cl)o1)C(=O)C1=CC=CN2CCS(=O)(=O)N=C12	nt	-8.0
COc1cccc(/C=C2\N=C(c3c(-c4ccccc4)noc3C)OC2=O)c1	nt	-6.0
COCCn1c(CCC(=O)NCc2ccc(C)cc2)nc2cccnc21	nt	-21.0
Cn1c(=O)c2sccc2n2c(CCCC(=O)N3CCCCC3)nnc12	1.0	-3.0
CCC(CO)NC(=S)Nc1ccccc1C (stereo not drawn)	-1.8	-2.0
COc1ccccc1CNC(=O)COC(=O)Cc1ccc(Br)cc1	-1.2	0.0
COCCN1C(=O)c2ccccc2C(C(=O)NCC2COc3ccccc3O2)C1c1ccc(F)cc1 (stereo not drawn)	0.9	11.0
Cc1ccc(C(C)C)c(OCC(=O)Nc2cc(-c3nc4ncccc4o3)ccc2Cl)c1	4.7	6.0
CC(C(=O)NCc1ccco1)N1CCN(C)CC1 (stereo not drawn)	13.0	5.0
Cc1ccc(C(=O)C(OC(=O)c2c(C)cc(=O)oc2C)c2ccccc2)cc1 (stereo not drawn)	-0.7	10.0
CN(C)S(=O)(=O)c1cccc(C(=O)OCC(=O)NC2CC2)c1	nt	9.0
CNC(C)c1ccc(OC)c(OC)c1 (stereo not drawn)	1.6	0.0
C=CCc1cccc(/C=C(/C#N)C(N)=O)c1O	nt	9.0
Clc1cc2nsnc2cc1Cl	nt	25.0
N/C(=N/c1nc(CSc2ccc(Cl)cc2)cc(=O)[nH]1)Nc1ccc(F)cc1	0.9	2.0
O=C(NCCc1ccccc1)[C@@H](c1ccccc1)N1Cc2ccccc2C1=O	-0.7	15.0
CC(Sc1nc(-c2ccccc2)cc(C(F)(F)F)n1)C(=O)NN1CCCCC1 (stereo not drawn)	-1.2	13.0
CCC(Sc1nc2sc(C(=O)OC)c(C)c2c(=O)n1N)C(=O)N(CC)CC (stereo not drawn)	nt	9.0
Cc1ccc(S(=O)(=O)NC(=O)N2CCN(C(=O)NS(=O)(=O)c3ccc(C)cc3)CC2)cc1	0.4	nt
COC(=O)c1ccccc1NC(=O)c1c(Cl)nc2sccn12	nt	4.0
O=C(CSc1cccs1)Nc1ccc(F)cc1F	0.0	nt
O=C(Cc1ccccc1)NCCO	-0.2	nt

Next results follow:
SMILES	MgrA DNA FP	Sa helicase inh
CCOc1ccc(N2C(=O)NC(=O)/C(=C/c3ccc(OC)c(Br)c3)C2=O)cc1	8.0	nt
Nc1nnnn1Cc1ccccc1	nt	6.0
COC(=O)CCn1nc(-c2ccc(C)cc2)c2ccccc2c1=O	1.1	1.0
Nc1ccn([C@H]2CC[C@@H](CO)O2)c(=O)n1	-0.2&0.9	-2.0
O=C(CCCn1c(=O)oc2ccccc21)N1CCN(S(=O)(=O)c2ccc3c(c2)CCC3)CC1	nt	-7.0
CCSC1=C(C#N)C(=O)NC(CO)S1 (stereo not drawn)	-0.7	-9.0
Cc1cc(-c2ccc(Cl)s2)nc(-n2cccc2)n1	2.2	nt
O=C(CNC(=O)OCc1ccccc1)ON1C(=O)CCC1=O	-3.3	nt
COc1ccc(C(=O)c2ccccc2)cc1	0.6	-16.0
O=C(CSc1nnc(-c2cccnc2)o1)OC1CCCCC1	-0.2	0.0
Clc1ccc(C=Nc2cccnc2)c(Cl)c1	4.0	nt
CNC(=O)CNC(=O)c1ccccc1	nt	21.0
O=C(CSc1nc(-c2cccs2)cc(C(F)(F)F)n1)NCc1ccncc1	-1.4	3.0
O=c1[nH]c(-c2ccccc2)c(-c2ccccc2)[nH]1	nt	8.0
Cn1cnnc1SCc1cccc2ccccc12	-1.9	nt
O=C1c2cccc3cccc(c23)C(=O)N1CCCN1CCN(CCCN2C(=O)c3cccc4cccc(c34)C2=O)CC1	0.1	nt
Cc1c(C#N)c(NC(=O)CN(C)CC(=O)Nc2ccc(F)c(F)c2F)n(Cc2ccco2)c1C	nt	4.0
O=C(NCc1ccco1)c1scc2c1OCCO2	-1.5	12.0
S=C(NCc1ccccc1)NCC(c1cccnc1)N1CCOCC1 (stereo not drawn)	nt	10.0
COc1cccc(/C=N/NC(=O)Cc2ccccc2)c1	0.2	13.0
Cc1cccc(Cn2c(CCNC(=O)C(C)(C)C)nc3ccccc32)c1	5.2	11.0
COc1ccc2c(c1)-c1nc(NC(=O)c3ccccc3Br)sc1CC2	1.1	9.0
O=[N+]([O-])/C=C/c1cc(Br)cs1	2.3	nt
CC(=O)N1N=C(c2ccccc2)OC1c1cccnc1 (stereo not drawn)	0.1	-6.0
Cn1cnnc1SC(C(=O)Nc1cc(Cl)cc(Cl)c1)c1ccccc1 (stereo not drawn)	-0.9	6.0

Further records follow.
SMILES	MgrA DNA FP	Sa helicase inh
COc1ccc(OC)c2[nH]ccc12	-1.7	nt
CCOC(=O)c1sc2nc(NC(=O)C3CC3)sc2c1C	nt	-5.0
O=C1CCCCC1OC(=O)C12CC3CC(CC(C3)C1)C2 (stereo not drawn)	0.4	16.0
O=C(Oc1ccc(Cl)cc1)c1cccs1	nt	24.0
CN1CCC(N(C)C(=O)/C=C/c2cn(-c3ccccc3)nc2-c2cccnc2)CC1	nt	-13.0
Clc1ccc(N=C2CSc3nncn3N2)cc1Cl	nt	-13.0
CCOC(=O)c1c(CN2CCOCC2)n(-c2ccccc2)c2ccc(O)cc12	0.2	-22.0
CC(OC(=O)c1cc2sccc2n1C)C(=O)NCC1CCCO1 (stereo not drawn)	17.6	10.0
O=C(Nc1ccc(Cl)cc1)c1cnc(N2CCCC2)nc1	nt	6.0
O=C(CSc1nnc(-c2ccccc2)o1)Oc1ccc(Br)cc1	0.2	2.0
CN1CCc2c(Nc3ccc(Cl)cc3)nc3[nH]n(-c4ccccc4)c(=O)c3c21	nt	11.0
CCOc1ccc(-c2noc(CCCC(N)=O)n2)cc1OC	nt	14.0
NC(=O)c1ccc(-c2ccnc(-c3ccc(Br)s3)n2)cc1	0.8	nt
Cc1nc2c(-c3ccccc3)c(C)nn2c(C)c1CC(=O)NN1CCOCC1	nt	-9.0
Cc1cc(NCCN(C)C)c2ccccc2n1	6.2	11.0
CN(C(=O)CSc1nc(N)nn1-c1ccccc1)c1ccccc1	nt	5.0
CCOc1ccc(C(=O)CC2OC(=O)c3ccccc32)cc1 (stereo not drawn)	0.2	nt
COC(=O)COC(=O)c1ccc2[nH]c(=O)c(=O)[nH]c2c1	nt	-15.0
O=C(CNS(=O)(=O)c1ccccc1)N1CCCC1	-0.3	0.0
CC1CN(c2cc(=O)n(-c3ccc(Cl)cc3)c(=O)[nH]2)CC(C)O1 (stereo not drawn)	-0.6	5.0
COc1ccc(OC)c(C(c2c(O)[nH]c(=S)[nH]c2=O)N2CCN(c3ccccc3)CC2)c1 (stereo not drawn)	4.8	-3.0
CCC(CO)n1c(SCc2cc(=O)oc3cc(C)ccc23)nc2ccccc2c1=O (stereo not drawn)	nt	-3.0
O=S(=O)(c1ccccc1)c1nnn2c1nc(N1CCCCC1)c1sccc12	-4.4	-3.0
CC(=O)N1CCC2(CC1)CC(=O)c1cc(OCC(=O)N3CCCC3)ccc1O2	-1.1	6.0
CCN=C1S/C(=C2\C(=O)N(C)c3ccccc32)C(=O)N1CC	nt	-2.0
